Rce1 inhib = inhibitors of yeast Ras-converting enzyme; hit rate 0.27% among 290,000; AID 2563; calls only; yeast membranes, quenched prenylated peptide cleavage fluorescence; Q03530;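 active = fall in fluorescence gain of 50% or more versus controls, with final raw signal at or below 3038400; inconclusive = same 50% fall but final raw signal above 3038400; inactive = fall in fluorescence gain under 50%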;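 also: plate controls were neutral control wells for no effect and wells lacking membranes for full effect; tested at 10 µM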
Target sequence (Q03530 whole entry, looked up): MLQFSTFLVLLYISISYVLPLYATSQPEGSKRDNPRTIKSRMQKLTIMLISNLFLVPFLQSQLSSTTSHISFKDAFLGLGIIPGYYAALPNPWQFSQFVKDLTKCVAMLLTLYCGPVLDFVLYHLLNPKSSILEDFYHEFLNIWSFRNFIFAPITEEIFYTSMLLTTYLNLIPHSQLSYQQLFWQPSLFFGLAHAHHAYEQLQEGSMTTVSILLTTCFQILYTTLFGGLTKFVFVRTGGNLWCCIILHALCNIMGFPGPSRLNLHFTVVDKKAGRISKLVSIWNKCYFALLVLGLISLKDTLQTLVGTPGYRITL
PABP polyA inh = PABP-poly(A) binding inhibition | inhibition, % at 35 µM | PABP-poly(A) RNA binding, fluorescence polarization | hit rate 1% among 290,000 | P11940;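 active = 50% or more with normal probe brightness, or confirmed in later tests; inconclusive = above 50% with abnormal brightness, or retests that disagree; inactive = below 50% or failed in later tests; about a fifth of its hits are not listed in these tables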;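 also: calls also rest on retests at 20 µM and on dose response follow-up; controls were probe without protein and protein plus probe with vehicle; some compounds called inactive have numbers as strong as hits; many hits fall short of the cut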
Target sequence (P11940 whole entry, looked up): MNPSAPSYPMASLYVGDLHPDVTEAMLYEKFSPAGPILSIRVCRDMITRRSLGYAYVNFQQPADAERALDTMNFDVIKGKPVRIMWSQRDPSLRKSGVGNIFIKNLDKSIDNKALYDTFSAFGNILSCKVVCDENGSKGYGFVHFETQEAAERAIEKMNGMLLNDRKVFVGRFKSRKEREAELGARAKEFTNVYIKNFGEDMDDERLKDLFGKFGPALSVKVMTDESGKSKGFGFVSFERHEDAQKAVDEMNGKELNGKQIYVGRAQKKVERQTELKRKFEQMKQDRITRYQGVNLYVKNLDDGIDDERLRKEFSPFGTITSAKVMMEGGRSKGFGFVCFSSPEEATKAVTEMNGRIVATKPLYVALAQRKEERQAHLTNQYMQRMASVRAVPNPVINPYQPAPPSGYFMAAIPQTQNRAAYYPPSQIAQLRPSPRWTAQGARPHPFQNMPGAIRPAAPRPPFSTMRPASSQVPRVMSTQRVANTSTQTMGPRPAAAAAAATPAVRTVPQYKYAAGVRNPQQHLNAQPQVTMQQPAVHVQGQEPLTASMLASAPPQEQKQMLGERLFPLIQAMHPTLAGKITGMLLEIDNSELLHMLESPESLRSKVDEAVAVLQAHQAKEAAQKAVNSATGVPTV
MT1-MMP act inh = blocks activation of human MT1-MMP; P50281; HT1080 RFP-PRO-GFP cells, GFP/RFP ratio fluorescence, overnight; percent of plate control window, DMSO zero; hit rate 0.061% among 360,000; GFP/RFP ratio change, % at 20 µM; AID 651647;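 active = GFP/RFP ratio change of at least 30% with cell ATP level not reduced by more than half and red fluorescence within 50% of control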; also: strong numbers were not always called active
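Read-out: GFP/RFP fluorescence ratio; Test system: RFP-PRO-GFP reporter HT1080 cells; Compound dosing: single-point 20 µM compound, 1% DMSO; Times: overnight compound exposure at 37 °C.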
Env fusion inh = blocks HIV Env-driven cell-cell fusion; HeLa-JRFL Env/CEM21 cell fusion, luciferase; inhibition, % at 12.3 µM; hit rate 1.1% among 360,000; AID 651610;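 active = mean replicate inhibition score of at least 50 and every replicate individually at or above 50; inconclusive = only one of the two criteria met; inactive = mean below 50 and not all replicates reaching 50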;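 also: 0% = plate neutral controls and 100% = maraviroc near 300 nM; one replicate is shown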
UUG fidelity = yeast start codon fidelity modulation; S. cerevisiae UUG-firefly luciferase reporter, luminescence/redox ratio; activity score, % at 18.7 µM; hit rate 0.13% among 350,000;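 active = replicate mean at a twofold rise or more, about +100% in these data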;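 also: firefly luciferase made from a UUG start codon reports start codon fidelity; reporter light over untreated wells divided by growth signal over untreated wells; some hits fall short of that in this replicate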
eIF4H inh = inhibitors of RNA binding by human eIF4H; eIF4H fluorescence polarization binding assay; inhibition, % at 35 µM; hit rate 0.94% among 290,000; AID 2012;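 active = 50% or more with normal probe brightness, or confirmed in later tests; inconclusive = above 50% with abnormal brightness, or retests that disagree; inactive = below 50% or failed in later tests; about a fifth of its hits are not listed in these tables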;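 also: calls also rest on retests at 20 µM and on dose response follow-up; 0% = protein and probe with vehicle and 100% = probe without protein; strong numbers were not always called active; many hits fall short of the cut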
CSC inhib = cancer stem cell inhibition; cancer stem cell-like cells viability, luminescence; inhibition, % at 7.5 µM; hit rate 1.1% among 300,000;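 active = mean at 75% or more and at least half the replicates too; inconclusive = mean and replicates disagree; tested in HMLE shEcad cells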;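 also: 0% = median of negative and 100% = median of positive control wells; the first replicate is given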
MT1-MMP act inh RFP = further read-out of MT1-MMP act inh, marked with its call; RFP signal change, %; measured here: RFP expression control read;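 0 = vehicle wells; hits needed this value within 50% of zero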
An asterisk follows results filed as active; i = inactive; ? = inconclusive; · = not tested or not shown; + = active, no number; & = joins results of further samples. Not all compounds are listed (hit frequency here may not be typical).

Below each compound – Rce1 inhib	PABP polyA inh	MT1-MMP act inh	MT1-MMP act inh RFP	Env fusion inh	UUG fidelity	eIF4H inh	CSC inhib
COc1ccc(N2CCN(C(=O)c3ccc4c(c3)CC(c3ccccc3)OC4=O)CC2)cc1 (centres undefined)
 : ·	·	6	-4	39	4	·	·
CN(c1ccccc1C(=O)N1CCc2ccccc2C1)S(C)(=O)=O
 : i	-4	-1	-1	-88	-5	-8	-10
O=S(=O)(c1ccccc1)c1cnc2ccccc2c1
 : i	·	3	2	3	-16	·	-25
CCN(Cc1ccccc1)C(=O)c1c[nH]c2ccc(S(=O)(=O)N(C)CCC#N)cc2c1=O
 : i	0	6	6	·	·	3	-14
Cc1cc(N)n(-c2ncnc3scc(-c4ccccc4)c23)n1
 : i	4	-1	2	-9	-19	1	-4
O=C(/C=C/c1c(F)cccc1Cl)N1CCc2ccccc2C1
 : i	-7	0	0	-8	-16	-15	-2
O=C(COc1nsnc1N1CCOCC1)Nc1cccc(Cl)c1
 : i	-2	5	-1	8	-6	12	-4
COc1cccc(CN2CCN(C3CCN(c4cccc(C)c4C)CC3)CC2CCO)c1 (centres undefined)
 : i	-19	7	2	28	13	6	37
N#C/C(=C\c1cccc(OCC(=O)O)c1)c1nc2ccccc2[nH]1
 : i	1	-3	0	-13	-13	-2	-4
COc1ccc(CC(=O)NNc2ncnc3c2cnn3C)cc1
 : i	11	2	4	9	-2	-6	-10
COc1ccc(OC)c(C2=NOC(C(=O)NCCN3CCOCC3)C2)c1 (centres undefined)
 : i	0	6	2	-9	·	-11	6
CC1(C)Cc2c(c(-c3ccccc3)nc3[nH][nH]c(=O)c23)CO1
 : i	-2	1	6	·	-31	7	-1
COC(=O)c1ccc(NC(=O)c2ccccc2)o1
 : i	-1	1	-1	·	-1	-2	-11
CCCCOc1ccc([N+](=O)[O-])cc1C(=O)O
 : i	?	4	4	-8	-11	-2	-8
COc1ccc(/C=C(\NC(=O)c2ccc(OC)cc2)C(=O)Nc2cccc(C(=O)O)c2)cc1
 : i	1	0	4	5	-13	-7	-8
O=[N+]([O-])c1c(NCc2ccco2)ncnc1NCc1ccco1
 : ·	·	-4	-3	7	1	·	·
S=c1[nH]nc(CCc2ccccc2)n1-c1ccccc1
 : i	0	2	4	0	·	3	-12
O=C1C2C3C=CC(C4CC34)C2C(=O)N1CCc1ccccc1 (centres undefined)
 : i	-6	1	-1	-1	-2	-6	·
COc1ccc(N2CCN(CCC(N)=O)CC2)cc1
 : i	-7	2	3	·	-19	12	-4
COCC(=O)OCC(=O)Nc1cc(C(C)(C)C)nn1-c1ccccc1
 : i	6	-2	1	·	·	4	-12
O=C(Cc1ccccc1)Nc1ccc(N2CCN(Cc3ccccc3F)CC2)cc1
 : i	2	2	-1	-39	-14	2	-2
CCC1CSC(Nc2ccc(C(=O)/C=C/c3ccc(OC)c(OC)c3)cc2)=N1 (centres undefined)
 : i	7	-11	-28	25	13	1	-16
CNC(=O)c1ccc(CNC(=O)OCC(F)(F)F)cc1
 : i	-10	5	1	-5	-22	-5	-3
COc1ccc(N2CCN(C(=O)[C@H](C)NC(=O)c3ccccc3Cl)CC2)cc1
 : i	5	0	-3	-4	0	-14	1
Brc1cccc(CSc2nnc(-c3ccncc3)o2)c1
 : i	-10	-12	-7	23	·	7	21
CCN(CC)CC(=O)Nc1sc(C)cc1C(=O)c1ccc(C)cc1
 : i	5	-1	-2	17	-5	-3	16
CC1CCN(C(=O)COC(=O)Cn2cnc3c2c(=O)n(C)c(=O)n3C)CC1
 : i	·	-7	-3	·	-6	·	-3
O=C(Cc1ccccc1)NCC(=O)N1CCC2(CC1)NCCc1[nH]cnc12
 : i	·	-4	-1	-3	-18	·	-2
COc1ccc(N(CC(=O)Nc2ccc(S(=O)(=O)N3CCCCC3)cc2)S(C)(=O)=O)cc1OC
 : i	-7	5	-1	-12	6	3	0
CCCCCCCCC(=O)N/N=C(\C)c1ccc(O)cc1O
 : i	-7	-2	-4	·	·	1	58
O=S(=O)(c1ccc(Cl)cc1)N1CCCN(c2nc3ccc(Cl)cc3s2)CC1
 : i	4	12	2	91*	·	-4	-10
Cc1cc(NC(=S)NC(=O)CC(C)C)ccc1Br
 : i	-16	-8	-6	·	-9	0	-12
Cn1nc(CSc2ccccc2)c(C=O)c1Cl
 : i	-3	-1	1	10	-19	-10	-4
COc1cccc(C(=O)CN2C(=O)C(C)(C)Oc3ccc(C(=O)N4CCOCC4)cc32)c1
 : i	-1	-2	0	19	-7	-1	-7
COc1ccc(C(=O)n2nnc3ccccc32)cc1Br
 : i	6	-4	-2	·	1	-2	·
CCN(CC)S(=O)(=O)c1ccc(N=Cc2c(C)c(C#N)c(=O)n(C)c2O)cc1
 : i	6	-2	3	5	·	?	-24
CCc1nc2ccc(C(=O)Nc3cccc(OCC(=O)N(C)C)c3)cn2c1N(CCN(C)C)CC1CC1
 : ·	·	-2	5	1	-6	·	·
CCOc1ccc(N(CC(=O)O)S(=O)(=O)c2ccc(OC)c(OC)c2)cc1
 : i	7	2	2	·	-29	11	5
O=c1n(Cc2ccccc2Cl)c2sc3c(c2c2ncnn12)CCCC3
 : ·	-6	2	-4	·	-13	-6	·
Cc1[nH]c(C(=O)O)c(C)c1C(=O)OC(C)C
 : i	-8	2	8	-15	-14	5	-7
O=C(CCCN1C(=O)/C(=C\c2cccs2)SC1=S)NNC(=O)c1ccncc1
 : i	-5	5	2	-4	·	-1	-8
Cn1c(=O)c2c(nc(Cl)n2CC(=O)N2CCCCC2)n(C)c1=O
 : i	10	2	2	-15	21	4	-8
CCC(C)N(C(=O)CSc1nnc(-c2ccco2)n1C)C1CCS(=O)(=O)C1 (centres undefined)
 : i	·	2	4	-57	·	·	-6
O=C(CCN1C(=O)C2C3C=CC(C3)C2C1=O)NCCc1ccccc1Cl (centres undefined)
 : i	-2	-4	1	-4	-2	7	·
Cc1ccc(S(=O)(=O)Nc2nnc(C(C)(C)C)s2)cc1
 : i	-4	-2	-1	12	9	-5	-17
Cc1ccccc1OCCCC(=O)NCc1ccco1
 : i	-7	9	6	-20	-13	-5	15
COc1ccc(C(=O)Nc2ccc(-c3n[nH]c(=S)o3)cc2)cc1
 : i	8	-3	-2	-28	-19	-13	-17
O=C(Cc1cccc(C(F)(F)F)c1)Nc1ccccc1N1CCCC1
 : i	-3	-4	-7	23	7	-2	-3
O=S(=O)(c1ccccc1)N1CCC(Oc2ccc(-n3cnnn3)cc2)CC1
 : i	·	-1	-6	6	-11	·	17
C[C@@H]1CN([C@H](C)CO)C(=O)c2cc(Br)cnc2O[C@H]1CN(C)C
 : ·	·	1	6	23	-7&5	·	·
C=C(C(=O)Nc1ccccc1)c1ccc(C)cc1
 : i	·	2	-1	-19	-14	·	6
CCCN(CCC)CC(O)CN(c1ccccc1)S(=O)(=O)c1ccc(C)cc1 (centres undefined)
 : ·	9	-2	-3	-79	-17	3	3
O=C(CN1CCCCC1)Nc1ccc(N2CCCCCC2)cc1
 : i	33	3	6	-12	·	4	36
Cc1cc2c(C)nc(N/N=C/c3ccc([N+](=O)[O-])cc3)nc2o1
 : i	-1	7	2	·	·	-11	-14
COc1ccc(C2CC(C(F)(F)F)n3nc(C(=O)Nc4c(C)n(C)n(-c5ccccc5)c4=O)c(Cl)c3N2)cc1 (centres undefined)
 : i	2	·	·	·	·	-13	·
C=CCn1c(Cc2ccc(OC(C)C)c(Cl)c2)nnc1SCC(N)=O
 : i	5	4	5	·	-29	-8	-2
COCCCNC(=O)c1cc2cc3cc(OC)ccc3nc2o1
 : +	-2	4	5	-9	-7	-5	1
CCc1cc(=S)n2c([nH]c3ccccc32)c1C#N
 : i	8	-10	-2	·	·	29	·
CCN1C(=O)/C(=C\N(C)C)S/C1=N\S(=O)(=O)c1ccccc1
 : i	9	-2	-2	-1	·	-14	-1
CCN1/C(=C\C=C2\C(=O)N(C)C(=S)N2C)Sc2ccccc21
 : i	-6	18	27	-15	·	44	5

Remaining list, next part.
Below each compound – Rce1 inhib	PABP polyA inh	MT1-MMP act inh	MT1-MMP act inh RFP	Env fusion inh	UUG fidelity	eIF4H inh	CSC inhib
CCOc1ccc(C(=O)Nc2cc(NC(=O)c3ccc(OCC)c(Cl)c3)cc(C(=O)O)c2)cc1Cl
 : i	22	2	5	18	·	9	·
COc1cc(C2CC(=O)c3c(O)cc(O)cc3O2)ccc1O (centres undefined)
 : i	2	-3	-1	·	-4	-2	2
C[C@H](CO)N1C[C@H](C)[C@@H](CN(C)C(=O)Nc2ccccc2)Oc2ncc(C#CC3CCCCC3)cc2C1=O
 : ·	·	2	-2	-9	31&49&21	·	·
CCOc1ccc(S(=O)(=O)NC2CC2)cc1C(N)=O
 : i	-3	-2	-1	0	·	4	2
COc1cccc(-c2nn(Cc3ccccc3)cc2CO)c1
 : ·	-2	0	-3	-7	-19	-6	0
O=C(COc1ccccc1)N1CCN(S(=O)(=O)c2ccc(Br)cc2)CC1
 : i	11	3	1	-3	-10	-1	2
CCc1nc2sc3c(O)cc(=O)[nH]c3c2cc1C
 : i	-12	-1	-1	-7	-5	9	1
O=C(O)CCN1C(=O)C2CCCCC2C1=O (centres undefined)
 : i	-3	0	1	-7	-23	-4	0
O=C(CCc1ccccc1)NNC(=O)Nc1ccc(F)c(Cl)c1
 : i	-6	-4	0	25	-6	11	6
O=C(Nc1ccc(N2CCOCC2)cc1N1CCOCC1)c1cccs1
 : i	-7	0	5	-11	-15	-4	-1
O=C(NCc1cccs1)C(Cc1ccccc1)NS(=O)(=O)c1cccs1 (centres undefined)
 : i	-5	-8	-3	55*	-9	0	2
COC(=O)[C@H](Cc1ccccc1)NC(=O)Cn1ccc(NC(=O)OCc2ccccc2)nc1=O
 : ·	·	3	2	6	1	·	-10
CCn1cc(CN2CCC(C(=O)Nc3cccc(-c4cscn4)c3)CC2)cn1
 : i	-10	0	2	·	-20	-14	5
CN(C)S(=O)(=O)c1cccc(C(=O)Nc2cc(S(=O)(=O)N3CCOCC3)ccc2N2CCCC2)c1
 : ·	·	-3	0	1	-5	·	·
O=S(=O)(Nc1c(F)cccc1F)c1ccc2c(c1)OCCO2
 : i	-10	-4	1	2	-16	-9	-15
COCCNC(=O)C1CC(c2cccc(F)c2)=NO1 (centres undefined)
 : i	4	2	8	-13	1	-1	-12
Cc1cccc(CCNC(=O)c2cc(=O)[nH]c3ccc(Br)cc23)c1
 : i	-6	·	·	·	·	-12	-5
CCS(=O)(=O)N1CCCC(C(=O)NC2CCCC2)C1 (centres undefined)
 : i	4	-3	1	·	-12	-4	4
CC(C)c1ccc(/C=N/n2cnnc2)cc1
 : i	5	3	6	-34	·	-18	3
Cc1ccc([N+](=O)[O-])cc1NC(=O)CNC1CCCCC1
 : i	11	-2	-2	-4	-9	-7	25
CC(OC(=O)c1cc[n+]([O-])cc1)C(=O)NCc1ccccc1 (centres undefined)
 : i	·	-4	-1	9	-10	·	-12
COC(=O)CSc1nc2sc3c(c2c(=O)n1-c1ccc(OC)cc1)CCN(C)C3
 : i	-3	2	5	-9	-2	-14	·
O=C(NN1C(=O)C2C(C1=O)C1C=CC2C12CC2)c1ccncc1 (centres undefined)
 : i	-15	-1	8	-19	-9	-10	20
COc1ccsc1NC(=O)OCc1ccc(Cl)cc1
 : i	-4	-3	0	-13	-24	0	9
COc1ccccc1CNC(=O)c1cnn2c(C(F)F)cc(C)nc12
 : i	9	-1	0	-15	-16	3	7
CCCN(CC(=O)Nc1ccccc1Br)CC(=O)Nc1ccc(F)c(F)c1F
 : i	-10	3	-2	-8	·	-3	-3

Source: PubChem BioAssay (several laboratories)
